Assay outcomes (PubChem BioAssay)
Cruzain inh noDet – cruzain (T. cruzi) inhibition without detergent; P25779; purified cruzain, Z-FR-AMC fluorescence, no detergent; Potency, µM, for the others: max response, negative = inhibition, hits mostly inhibitors; hit rate 2.3% among 200,000;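 note: plate controls were enzyme without inhibitor for no effect and buffer without enzyme for full effect; nearly all actives have a fitted effect of over 40% in size; top concentration of the series not given in the record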
Target sequence (P25779 123-467 limits assumed): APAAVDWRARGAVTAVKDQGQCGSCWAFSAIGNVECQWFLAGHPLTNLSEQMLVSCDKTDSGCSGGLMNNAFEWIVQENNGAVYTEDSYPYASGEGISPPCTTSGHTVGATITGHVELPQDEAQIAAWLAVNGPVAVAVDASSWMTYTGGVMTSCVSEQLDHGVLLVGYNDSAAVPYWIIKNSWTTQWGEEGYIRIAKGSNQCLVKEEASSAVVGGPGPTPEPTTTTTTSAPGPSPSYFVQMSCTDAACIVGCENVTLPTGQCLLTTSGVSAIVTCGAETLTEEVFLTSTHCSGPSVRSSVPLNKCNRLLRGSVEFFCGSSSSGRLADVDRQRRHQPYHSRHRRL
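Detergent-free condition (0.00005% Triton X-100) in acetate buffer pH 5.5 with DTT. 1.5 nM enzyme and compound were pre-mixed 15 min, then 2 uM Z-FR-AMC substrate added; reaction progress from fluorescence change between first and third reads (60 s).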
MARV entry inh – inhibitors of Marburg virus binding or cell entry; Marburg virus pseudotyped entry inhibition, cell reporter; control for the full effect not named in the record; about a third of the inactives were read at about 46 µM; hit rate 1.8% among 300,000; AID 540276; Potency, µM (titrated, usually from 37.8 µM), without a hit: top-dose activity change, negative = inhibition, actives largely listed as inhibitors; active = well fitted inhibition curve with a large enough effect; inconclusive = small, poorly fitted or top-dose-only effect, or effect the other way; inactive = flat fitted curve, though single readings scatter; tested in HEK293 cells; about a fifth of its hits are not listed in these tables; note: % is set by controls: 0 for no effect and ±100 for the full control effect; luciferase read-out
2A StopGo – FMDV 2A StopGo reporter, luciferase signal. human cells with a luciferase reporter of 2A StopGo recoding; control for the full effect not named in the record. Potency, µM (highest dose often 57.9 µM), inactives show top-dose signal change, negative = less light. hit rate 1.2% among 410,000; active = well fitted falling curve with a large enough effect; inconclusive = small, poorly fitted or top-dose-only effect; inactive = no such curve, though single readings can be large or run the other way; tested in HEK293T cells; note: % is set by controls: 0 for no effect and ±100 for the full control effect; nearly all actives have a fitted effect of over 45% in size; luciferase light after 4 h
SARS PLP yeast – inhibitors of SARS-CoV papain-like protease in yeast | Potency, µM (top dose mostly 32.9 µM), for the others: at the highest dose activity, positive = growth rescue | S. cerevisiae expressing SARS-CoV PLpro, growth rescue; control for the full effect not named in the record | hit rate 0.19% among 330,000 | AID 485353; active means well fitted rising curve with a large enough effect; inconclusive means small, poorly fitted or top-dose-only effect; inactive means no such curve, though single readings can be large or run the other way; note: 0% is about no effect; nearly all actives have a fitted effect of over 55% in size; growth read by luminescence after 48 h
NS1 function inh – inhibitors of influenza NS1 protein function; Potency, µM (doses to about 46.1 µM), for inactives: at the highest dose activity, positive = more growth; AID 2326; hit rate 0.4% among 270,000; S. cerevisiae slowed by influenza A NS1, growth recovery by OD600; active means well fitted rising curve with a large enough effect; inconclusive means small, poorly fitted or top-dose-only effect; inactive means no such curve, though single readings can be large or run the other way; note: nearly all actives have a fitted effect of over 50% in size
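A cell-based growth assay was used: compounds that relieve NS1-induced slow growth of budding yeast raise OD600. Assay medium was yeast nitrogen base with ammonium sulphate and -URA supplement, pH 6.0, with 2% galactose.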
LASV entry inh – inhibitors of Lassa virus binding or cell entry | hit rate 1.2% among 300,000 | Lassa virus pseudotype entry inhibition, cell reporter; control for the full effect not named in the record | Potency, µM (series often up to 37.9 µM), for the others: at the top dose activity change, negative = inhibition, actives largely listed as inhibitors | AID 540256; active means well fitted inhibition curve with a large enough effect; inconclusive means small, poorly fitted or top-dose-only effect, or effect the other way; inactive means flat fitted curve, though single readings scatter; tested in HEK293 cells; note: % is set by controls: 0 for no effect and ±100 for the full control effect; nearly all actives have a fitted effect of over 50% in size; luciferase read-out
Cruzain inh Det – cruzain (T. cruzi) inhibition with detergent; P25779; hit rate 0.43% among 200,000; Potency, µM, for inactives: max response, negative = inhibition, actives largely listed as inhibitors; purified cruzain, Z-FR-AMC fluorescence, 0.01% Triton;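 note: plate controls were neutral wells for no effect and buffer without enzyme for full effect; nearly all actives have a fitted effect of over 40% in size; top concentration of the series not given in the record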
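Sodium acetate buffer (100 mM, pH 5.5) containing 5 mM DTT and 0.01% Triton X-100 hosted 1.5 nM cruzain and test compound for 15 min at room temperature. Cleavage of 2 uM Z-FR-AMC was then tracked by fluorescence.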
RE007 growth inh – less growth of the S. pombe RE007 Vpr strain; S. pombe RE007 Vpr strain, BacTiter-Glo ATP luminescence, 24 h; control for the full effect not named in the record; Potency, µM (top dose mostly 92.2 µM), for inactives: top-dose activity change, negative = less growth; hit rate 0.21% among 360,000; AID 651644; active = well fitted falling curve with a large enough effect; inconclusive = small, poorly fitted or top-dose-only effect; inactive = no such curve, though single readings can be large or run the other way;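 note: % is set by controls: 0 for no effect and ±100 for the full control effect; nearly all actives have a fitted effect of over 50% in size; the assay follows cell death caused by Vpr and the record does not say whether a fall means rescue or toxicity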
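Fission yeast strain RE007, carrying one chromosomally integrated HIV-1 vpr copy, was seeded at OD 0.01 in PMG+AL medium with 23 nL pinned compound. After 24 h at 30 °C and 99% humidity, viability was read by BacTiter-Glo luminescence.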
* hit, by the source's call; u = inconclusive; x = no result given; [ ] = remark or other dose. Unless noted, calls come from the whole dose curve; as a rule, active = well fitted curve in the direction sought with a large enough effect; inconclusive = small, poorly fitted or top-dose-only effect, or another doubt; inactive = no such curve, though single readings can be large; an effect the other way counts as inactive or inconclusive. Potency is the fitted concentration of half-maximal effect.

mol	Cruzain inh noDet	MARV entry inh	2A StopGo	SARS PLP yeast	NS1 function inh	LASV entry inh	Cruzain inh Det	RE007 growth inh
COc1ccc(N(C(=O)Cn2nnc(-c3ccc(Cl)cc3)n2)C(C(=O)NCC2CCCO2)c2ccc(C)cc2)cc1 (centres undefined)	9%	1%	-5%	5%	9%	4%	4.3%	1%[3.69 µM]
Cc1ccc(NC(=O)NCC(c2cccnc2)N2CCOCC2)cc1 (centres undefined)	0%	0%	9%	-1%	-7%	-10%	-0.7%	14%
Cc1ccc(-c2csc3ncn(CC#N)c(=O)c23)cc1	x	5%	-16%	-3%	-4%	0%	x	7%
O=C(NCc1ccco1)c1cc2ccc(O)cc2oc1=O	u	u	0%	-24%	-232%	u	u	35µM*
O=C(CCCc1c[nH]c2ccccc12)NCc1ccc2c(c1)OCO2	-3%	27%	-7%	-4%	-12%	-22%	-7.2%	2%
CCc1c(C)sc(NC(=O)OC)c1C(=O)N1CCOCC1	-2%	0%	-8%	10%	7%	16%	1.7%	17%
CCOc1ccc(NC(=O)c2cc(S(=O)(=O)N3CCc4ccccc43)ccc2F)cc1	-30%	x	-19%	x	x	u	0.5%	x
COc1ccc(/C=C2\SC(=NCc3ccccc3)NC2=O)cc1	4%	11%	19%	4%	12%	-7%	-8.2%	-25%
Cc1c(/C=N\NC(=O)c2csc3ccccc23)cnn1C	-2%	-20%[46.1 µM]	39%[activator]	2%	7%	-15%	2.2%	4%
Cc1ccc(NC(=O)COC(=O)/C=C/c2ccccc2)cc1S(=O)(=O)N1CCOCC1	x	u	6%	-2%	0%	20%[46.1 µM]	x	6%
N#Cc1ccc(C23CC4CC(CC(C4)C2)C3)[nH]c1=O	-4%	-9%	11%	0%	7%	u	8.3%	1%
C/C(=N\Nc1nccnc1Cl)c1ccc(F)cc1	x	u	60%[activator]	0%	6%	5%	x	-10%
CC(=O)c1cccc(NC(=O)C2CCCN(S(C)(=O)=O)C2)c1 (centres undefined)	-3%	-6%	x	1%	u	18%	-0.6%	11%
COc1cc(NC(=O)COC(=O)CSc2ccc3ccccc3c2)c(C)cc1[N+](=O)[O-]	3%	-37%	-11%	1%	-7%	-4%	-12%	-3%
C=CCSc1nnc(-c2nnc(SCC=C)n2CC)n1CC	3%	-16%	-18%	-4%	0%	-21%	-1.0%	-14%
CC(C)n1c(SCC(=O)Nc2nc3ccccc3s2)nc2c1c(=O)n(C)c(=O)n2C	x	u	22µM*	x	x	-20%	x	9%
CCCn1c(NCc2ccc3c(c2)OCO3)nc2ccccc21	-7%	9%	6%	1%	-5%	9%	4.0%	15%
CC(=O)c1ccc(NC(=O)CSCCO)cc1	5%	20%	31%[activator]	3%	3%	15%	-1.6%	-2%
CCn1ccc2cc(S(=O)(=O)N3CCC(C(=O)NCCOC)CC3)ccc21	-10%	x	-14%	x	x	10%[46.1 µM]	-1.1%	x
Cc1cccc(-c2noc(CCCC(=O)NCC3CCCO3)n2)c1 (centres undefined)	x	-13%[46.1 µM]	-9%	2%	6%	x	x	-4%
COC(=O)C1CCN(C(=O)c2ccc(NC(C)=O)cc2)CC1	2%	14%	13%	10%	5%	13%	-3.1%	-22%
CC1CCCCN1S(=O)(=O)c1ccc(C(=O)Nc2sccc2C(N)=O)cc1 (centres undefined)	-27%	x	28%	-39%	-25%	x	-13%	6%
COc1ccc2c(CNC3CCC(C)CC3)c(C(=O)O)n(Cc3ccccc3)c2c1 (centres undefined)	-7%	x	7%	x	x	-17%[46.1 µM]	-2.8%	x
CCN1CCN(c2nc3ccccc3nc2C(C#N)C(=O)OCc2ccccc2)CC1 (centres undefined)	-6%	u	-16%	-4%	-9%	-21%	-0.8%	2%
Cc1nc2cc(F)ccc2n1C1CCN(C(=O)c2ccc(F)cc2F)CC1	x	u	-26%	2%	x	-19%[46.1 µM]	x	-15%
O=C(NC1CCSC1=O)c1ccc(Oc2cccc(C(F)(F)F)c2)nc1 (centres undefined)	-1%	6%	-22%	6%	1%	-1%	2.6%	38%
O=C(CCN1c2ccccc2Sc2ccccc21)Nc1ccccc1	u	-20%	0%	-34%	-16%	-2%	-0.5%	-3%
Cc1nn2c(C)c(C(=O)NCC(C)c3ccccc3)cnc2c1-c1ccccc1 (centres undefined)	-5%	x	-8%	x	x	-12%[46.1 µM]	-6.9%	x
NC(=O)CC(NC(=O)c1ccccc1)c1ccc(NCCN2CCCCC2)c([N+](=O)[O-])c1 (centres undefined)	x	x	-17%	10%	43%	x	x	-9%
O=C(N/N=C/c1ccco1)c1cccc([N+](=O)[O-])c1	9%	5%	2%	13%	1%	u	-8.6%	-3%
O=C(NNS(=O)(=O)c1ccc(F)cc1)c1ccc2c(c1)OCO2	x	x	45%[activator]	6%	-1%	x	x	-17%
O=C(CCCC1=NS(=O)(=O)c2ccccc2N1)N1CCC2(CC1)OCCO2	-2%	20%[46.1 µM]	0%	-3%	-7%	3%	-5.3%	-2%
COc1ccc2nc(N3CCCC(C(=O)NCCc4ccc(OC)c(OC)c4)C3)sc2c1 (centres undefined)	x	u	-1%	-1%	-40%	x	x	-8%
C=CCN(C(=O)CCC(=O)Nc1cc(C)on1)C(C(=O)NC1CCCC1)c1cccnc1 (centres undefined)	1%	-6%	8%	6%	-3%	11%	-5.0%	-3%
O=C(Nc1cccc2cccnc12)c1cccc(Cl)c1	x	x	60%[activator]	-18%	-136%	x	x	-10%
COc1c(Br)cc(Br)cc1/C=N/n1c(C)nnc1C	u	u	-23%	0%	-12%	u	0.8%	-1%
CCOc1ccccc1NC(=O)NCCc1c[nH]c2ccccc12	x	u	11%	-3%	-15%	x	x	-16%
COc1ccc(S(=O)(=O)N(CC(=O)NCC2CCCO2)c2ccc(F)cc2)cc1OC (centres undefined)	8%	24%	10%	-1%	5%	5%	2.1%	-6%
CCN(CC(=O)Nc1ccccc1C(F)(F)F)C(=O)CCS(=O)(=O)c1ccc(Cl)cc1	x	-16%	-3%	2%	x	u	x	0%
COc1ccc(C2CC(c3cc(OC)ccc3OC)n3nnnc3N2)cc1 (centres undefined)	-3%	-1%	-11%	2%	-10%	-3%	2.1%	-2%
COc1ccc(OC)c(S(=O)(=O)N2CCC(C(=O)NCCC3=CCCCC3)CC2)c1	u	14%	6%	-27%	-2%	15%	-1.9%	-1%
CC[C@H](C)NC(=O)CCCc1nnc2n(CCC(C)C)c(=O)c3sccc3n12	0%	x	-7%	x	x	25%[46.1 µM]	-0.6%	x
O=C(Cc1ccccc1)N/N=C/c1cccn1-c1ccc([N+](=O)[O-])cc1	-24%	u	-6%	-4%	u	-15%	-5.8%	-18%
CCOc1cc(C(=O)NCCCNC(=O)c2cc(OCC)c(OCC)c(OCC)c2)cc(OCC)c1OCC	x	-18%[46.1 µM]	-1%	x	x	3%[46.1 µM]	x	-5%
CC(=O)NCC1=C(NC(C)=O)C2CC1C(C)(C)C2C (centres undefined)	5%	5%	x	3%	-2%	x	15%	x
CC(=O)Nc1ccc(NS(=O)(=O)c2c(C(=O)N3CCCCCC3)c(C)n(C)c2C)cc1	-9%	x	-2%	x	x	-24%[46.1 µM]	-2.3%	x
Cc1cc(S(=O)(=O)Nc2cc(C)c(O)c(C)c2)c(C)s1	3%	u	63%[activator]	15%	18%	2%	0.6%	13%
Cc1ccc(C(=O)NC(O)C(Cl)(Cl)Cl)cc1 (centres undefined)	0%	0%	15%	2%	-6%	1%	-2.1%	-3%
CCOC(=O)Cc1csc(NC(=O)/C=C/c2ccc(Br)o2)n1	x	x	u	-1%	-42%	x	x	-14%
CC(=O)N1c2ccc(S(=O)(=O)N3CCCC(C(=O)NCc4ccc(Cl)cc4)C3)cc2CC1C (centres undefined)	x	x	u	0%	10%	x	x	-3%
Cc1ccc(OCCNC(=O)Cc2ccc(F)cc2)cc1	x	x	-3%	3%	-9%	x	x	3%
CCOc1ccccc1-c1nc(CN2CCCC2c2nccs2)c(C)o1 (centres undefined)	x	-24%[46.1 µM]	-14%	0%	-1%	-26%	x	-9%
CC(=O)NC(CC(=O)NNC(=O)c1cccs1)c1ccccc1 (centres undefined)	x	24%[46.1 µM]	-5%	-6%	x	11%	x	-1%
CSc1nnc(C)c(=O)n1COC(=O)c1ccccc1	x	8%[46.1 µM]	-8%	-4%	x	1%[46.1 µM]	x	9%
OC(CNCCc1c[nH]c2ccccc12)C(F)(F)F (centres undefined)	x	u	-11%	0%	3%	6%[46.1 µM]	x	1%
CC1CN(c2ccc([N+](=O)[O-])cc2Cl)CCN1S(C)(=O)=O (centres undefined)	x	x	u	-1%	-8%	x	x	-3%

(more compounds)
mol	Cruzain inh noDet	MARV entry inh	2A StopGo	SARS PLP yeast	NS1 function inh	LASV entry inh	Cruzain inh Det	RE007 growth inh
COc1ccc(NS(=O)(=O)c2ccc(C(=O)N(C)Cc3cccs3)cc2)cc1	x	u	-19%	-2%	x	-10%	x	-15%
C=CCn1c(=O)c2c(nc3n2CCS3)n(C)c1=O	-7%	-5%	13%	2%	1%	7%	2.3%	15%
O=C(CCc1ccc(S(=O)(=O)N2CCOCC2)cc1)OCC(=O)c1ccccc1	x	8%[46.1 µM]	16%	2%	x	11%[46.1 µM]	x	2%
CC1=Nn2c(nnc2-c2ccccn2)SC1	2%	1%	-12%	-1%	-7%	8%	0.4%	8%
COC(=O)c1ccc(S(=O)(=O)N2CCCN(Cc3ccc(F)cc3)CC2)n1C	x	x	u	-1%	-3%	x	x	-1%
O=C(NNC(=O)c1ccc(-c2ccccc2)cc1)Nc1ccc(F)cc1F	x	0%[46.1 µM]	5%	0%	20%	15%[46.1 µM]	x	-7%
Cn1cc(CNC(=O)C23CC4CC(CC(C4)C2)C3)cn1	4%	-1%	-3%	29%	4%	0%	2.4%	1%
Cc1ccc(-n2ncc(Br)c(Br)c2=O)cc1	x	x	u	-6%	-63%	x	x	16µM*
